Screens deposited in PubChem by National Center for Advancing Translational Sciences (NCATS).
TRPML1 agonist = activates the human TRPML1 channel; TRPML1-expressing cells, Ca2+ dye fluorescence, FDSS; host cell line not named in the record; reference of the full effect not given here; AID 624414; activation, % (no concentration beside the values); hit rate 0.12% among 410,000; Q9GZU1; in the data active = activation above about 50%; inconclusive = about 30% to 50%; inactive = below about 30%; also: 0% is about no effect; the text of the record puts the active cut at 80%
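Calcium fluorescence on an FDSS kinetic reader gave the read-out. Tet-induced TRPML1-DL cells were plated overnight, dye-loaded (Ca8 with quencher, 45-90 min, room temperature, dark), then read 110 s after compound addition, and again 110 s after 4uM final 54-4 (EC80).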
TRPV1 potentiator = human TRPV1 potentiation. hit rate 0.02% among 320,000. TRPV1-expressing cells, Fluo-8 calcium influx, capsaicin EC20 potentiation; host cell line not named in the record; control for the full effect not named in the record. potentiation, % at 8.33 µM. AID 540277; active means potentiation above 80%; inconclusive means 30% to 80%; inactive means below 30%; also: 0% is about no effect
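Cells expressing TRPV1 were dye-loaded with Fluo-8 and read kinetically: 10 s baseline, 3 min after compound (agonist portion), then 2 min after EC20 capsaicin (allosteric enhancer portion). Calcium-bound dye fluorescence at 480/520 nm.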
TRPML1 blocker = inhibitors of human TRPML1 channel. Q9GZU1. TRPML1-inducible cells, Ca2+ dye fluorescence, FDSS; active compounds read low; inhibition of EC80 agonist-evoked calcium signal. activity change, negative = inhibition, % (no concentration beside the values). hit rate 0.02% among 390,000. AID 624415; in the data active means activity change below about -50%; inconclusive means about -30% to -50%; inactive means above about -30%;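 also: stimulus is agonist 54-4 at its EC80 concentration; % is scaled to controls: 0 for no effect and ±100 for the full control effect; compound concentration not given in the record; the text of the record puts the active cut at -80%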
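TRPML1-DL cells, Tet-induced overnight (~16 h, 37 °C) at 1,500 cells/well, were loaded with Ca8 no-wash dye plus quencher for 45-90 min at room temperature. Compounds were pinned during FDSS kinetic reading; agonist 54-4 at EC80 (4 uM final) then added.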
D2 PAM = positive allosteric modulators of human D2 dopamine receptor. P14416. DiscoveRx D2 beta-arrestin cells, luminescence, 90 min; 100% = 57 uM dopamine signal. potentiation, % (test concentration not listed). hit rate 0.23% among 360,000. AID 624464; active = potentiation of 50% or more; inconclusive = 30% to 50%; inactive = 30% or less;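 also: compound concentration not given in the record; tested on top of an EC20 dose of dopamine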
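D2 cells co-treated with compound plus 50 nM dopamine (EC20) for 90 min at 37 deg C to detect potentiation. Beta-arrestin recruitment was read as enzyme-fragment luminescence after 1 h at ambient temperature. Full response was set by 57 uM dopamine.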
CtBP-E1A blk = CtBP/E1A binding inhibition | hit rate 0.49% among 340,000 | activity change, % (test concentration not listed) | AID 651724 | AlphaScreen GST-E1A/His-CtBP binding, 1536-well; active compounds read low; control for the full effect not named in the record; in the data active means activity change below about -65%; inconclusive means about -30% to -65%; inactive means above about -30%; also: % is scaled to controls: 0 for no effect and ±100 for the full control effect
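GST-E1A and His-tagged CtBP (125 nM each as 5X stock) were preincubated with pin-transferred compound for 2 h at 37 °C in the dark, then glutathione donor and nickel acceptor beads were added for 1 h before AlphaScreen reading.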
Six1-Eya2 blk = blocks human Six1 binding to Eya2 | Q15475+O00167 | AlphaScreen GST-Six1/His-Eya2 binding, biochemical; active compounds read low; control for the full effect not named in the record | activity change, % (concentration not given with the values) | hit rate 0.56% among 360,000; in the data active = activity change below about -65%; inconclusive = about -30% to -65%; inactive = above about -30%; also: % is scaled to controls: 0 for no effect and ±100 for the full control effect
Target sequence (O00167 whole entry, looked up): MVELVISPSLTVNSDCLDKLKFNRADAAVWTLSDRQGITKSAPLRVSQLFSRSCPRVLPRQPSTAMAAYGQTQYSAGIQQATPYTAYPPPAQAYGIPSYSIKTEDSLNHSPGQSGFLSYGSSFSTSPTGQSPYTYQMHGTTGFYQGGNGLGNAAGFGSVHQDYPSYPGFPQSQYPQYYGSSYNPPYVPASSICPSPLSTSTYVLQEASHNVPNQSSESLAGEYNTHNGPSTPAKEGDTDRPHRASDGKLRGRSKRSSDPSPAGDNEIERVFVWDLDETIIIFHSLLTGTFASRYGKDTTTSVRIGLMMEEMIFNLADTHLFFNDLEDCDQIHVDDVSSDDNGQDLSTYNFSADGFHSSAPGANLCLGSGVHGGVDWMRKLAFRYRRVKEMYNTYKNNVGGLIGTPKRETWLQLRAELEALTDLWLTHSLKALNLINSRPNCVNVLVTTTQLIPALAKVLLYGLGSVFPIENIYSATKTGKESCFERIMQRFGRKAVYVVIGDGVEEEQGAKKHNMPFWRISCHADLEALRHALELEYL
Target sequence (Q15475 whole entry, looked up): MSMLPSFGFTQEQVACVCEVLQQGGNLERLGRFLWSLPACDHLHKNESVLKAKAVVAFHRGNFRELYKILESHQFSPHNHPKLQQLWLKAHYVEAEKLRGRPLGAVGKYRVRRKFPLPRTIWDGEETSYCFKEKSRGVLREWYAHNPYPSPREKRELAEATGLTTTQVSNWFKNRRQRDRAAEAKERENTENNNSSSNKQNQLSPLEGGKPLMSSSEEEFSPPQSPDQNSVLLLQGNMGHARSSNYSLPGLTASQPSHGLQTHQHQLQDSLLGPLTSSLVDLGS
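AlphaScreen luminescence read after one hour at 37 °C in darkness. Pin-transferred compounds met GST-Six1 and His-Eya2 protein (5X stock 250 nM/500 nM) plus glutathione donor and Ni-chelate acceptor beads (5X, 50 ug/mL).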
* marks the source's active call; other numbers are inactive results; ? = inconclusive; . = no result given; & = joins results of further samples.

SMILES	TRPML1 agonist	TRPV1 potentiator	TRPML1 blocker	D2 PAM	CtBP-E1A blk	Six1-Eya2 blk
COc1ccc2c(c1)CC(N1CCN(C)CC1)c1cc(OC)ccc1S2 (stereo not drawn)	2.5	.	44	-23	-19	-9
COc1ccc(-n2c(=O)[nH]cc(C(=O)N3CCCc4ccccc43)c2=O)cc1	-0.3	-1	7	-14	0	4
CC(=O)NC(Cc1ccc(F)c(F)c1)C(=O)NC1CCN(C(=O)c2ccc(Cl)cc2)CC1 (stereo not drawn)	0.6	-7	7	-4	4	17
Nc1cc(-c2ccc(Br)cc2)nn1S(=O)(=O)c1cccc2nsnc12	-0.7	2	23	-8	-9	?
O=C(CCn1c(=S)[nH]c2ccccc2c1=O)N1CCCCC1	-0.2	-12	-14	-11	.	3
CCNc1nc(NCC)nc(N/N=C/c2ccccc2)n1	.	13	.	-25	-1	-9
Cc1ncc(CO)c(/C=N/NC(=O)c2cc(Br)ccc2O)c1O	0.5	7	22	-10	.	?
O=C1CC(c2ccccc2)n2nc(NC(=O)c3ccccc3)nc2N1 (stereo not drawn)	-0.1	5	8	-8	2	-1
COc1ccccc1-c1nc2n(n1)C(c1cccs1)C(C(=O)Nc1cccnc1)=C(C)N2 (stereo not drawn)	0.1	-21	-14	4	-3	1
O=C(O)C1CCCCC1C(=O)NC(c1ccccc1)c1ccccc1 (stereo not drawn)	-0.5	-9	24	0	8	6
COc1ccccc1NC(=O)CSCc1cc(=O)n2c(C)csc2n1	0.2	16	2	-3	2	9
CCOc1ccc(NC(=O)Cn2nnc(C(=O)NCc3cccs3)c2N)cc1	-0.2&-0.5	-1	-17&14	-11	-1	4
COc1ccc(S(=O)(=O)N(C)CC(=O)NC2CC2)cc1OC	1.0	-22	-3	-3	6	1
CCN(CC)CCCn1c(=S)[nH]c2ncccc2c1=O	0.8	-4	22	8	-19	-8
Cc1ccccc1OCc1nc2ccccc2c(=O)n1NC(=O)c1ccco1	0.6	9	17	-10	-1	-14
CC(=O)c1cc(C)ccc1OC(=O)c1ccncc1	.	28	.	-11	.	7
CCn1c(=O)c2sccc2n2c(CCCC(=O)NCCc3ccc(S(N)(=O)=O)cc3)nnc12	-0.2	-7	12	-6	-6	-4
CC1CCN(c2ccc(NC(=O)c3ccc([N+](=O)[O-])o3)cc2)CC1	0.6	-1	5	-7	0	-19
COc1ccc(N(CC(=O)NC2CCCCC2)C(=O)c2snc(C(N)=O)c2N)cc1	-0.3	11	10	-3	-2	11
CC1([N+](=O)[O-])COC(c2cccc3ccccc23)OC1 (stereo not drawn)	-0.6	.	-9	-17	10	8
CC(C)N(Cc1ccccc1)C(=O)COC(=O)c1ccccc1SCC(=O)N1CCCC1	2.6	4	-11	-13	1	4
CCOC(=O)c1cnc2ccccc2c1NCc1ccco1	-0.7	.	1	-20	.	-2
N/C(=N\OC(=O)/C=C/c1ccccc1)c1ccncc1	1.8	-17	20	10	-5	1
Cc1cc(Cl)c2oc(C(=O)N3CCN(c4ccncc4)CC3)c(C)c2c1	0.8	.	14	-33	0	-10
COc1cc(OC)cc(-c2cn[nH]c2N)c1	0.3	1	-9	-2	-20	-5
CCc1nnc(SCc2ccc([N+](=O)[O-])cc2)nc1CC	2.9	.	-6	-2	.	0
Cc1ccc(-c2nc3cc(NC(=O)C(C)C)ccc3o2)cc1	0.6	-3	34	-11	4	4
CC(=O)Nc1ccc2c(c1)nc(CN1CCCC1)n2C	-0.4	-2	0	-21	11	2
CCn1cc(CN2CCc3c([nH]c4ccccc34)C2c2cccc(OC)c2)c(C)n1 (stereo not drawn)	-0.2	-10	-18	-2	-12	-8
Fc1ccc(Cn2c(-c3cscn3)nc3ccccc32)c(Cl)c1	2.4	-12	-6	-12	-11	-13
Cc1cc(C(=O)CCl)c(C)n1CC1COc2ccccc2O1 (stereo not drawn)	0.7	3	-17	3	-15	-9
Cc1ccc(CNC(=O)c2ccc(N(C)C)cc2)cc1	-0.1	6	-8	-2	8	-8
CN1CCN(CC2(O)CCN(S(=O)(=O)c3ccc(Cl)cc3)CC2)CC1	0.3	7	-11	-4	-11	-4
CC(=O)CCSc1nnc(-c2cccc(S(=O)(=O)N3CCOCC3)c2)o1	-0.8	-3	8	-28	5	0
CC(=O)Nc1csc2ccccc12	1.1	0	7	-3	.	6
Fc1ccccc1-c1nc(-c2ccncc2)no1	3.8	-8	7	-3	8	1

Nothing new here: an excerpt of the list.
SMILES	TRPML1 agonist	TRPV1 potentiator	TRPML1 blocker	D2 PAM	CtBP-E1A blk	Six1-Eya2 blk
CC(=O)c1cc(C)ccc1OC(=O)c1ccncc1	.	28	.	-11	.	7
CCn1c(=O)c2sccc2n2c(CCCC(=O)NCCc3ccc(S(N)(=O)=O)cc3)nnc12	-0.2	-7	12	-6	-6	-4
CC1CCN(c2ccc(NC(=O)c3ccc([N+](=O)[O-])o3)cc2)CC1	0.6	-1	5	-7	0	-19
COc1ccc(N(CC(=O)NC2CCCCC2)C(=O)c2snc(C(N)=O)c2N)cc1	-0.3	11	10	-3	-2	11
CC1([N+](=O)[O-])COC(c2cccc3ccccc23)OC1 (stereo not drawn)	-0.6	.	-9	-17	10	8
CC(C)N(Cc1ccccc1)C(=O)COC(=O)c1ccccc1SCC(=O)N1CCCC1	2.6	4	-11	-13	1	4
CCOC(=O)c1cnc2ccccc2c1NCc1ccco1	-0.7	.	1	-20	.	-2
N/C(=N\OC(=O)/C=C/c1ccccc1)c1ccncc1	1.8	-17	20	10	-5	1
Cc1cc(Cl)c2oc(C(=O)N3CCN(c4ccncc4)CC3)c(C)c2c1	0.8	.	14	-33	0	-10
COc1cc(OC)cc(-c2cn[nH]c2N)c1	0.3	1	-9	-2	-20	-5
CCc1nnc(SCc2ccc([N+](=O)[O-])cc2)nc1CC	2.9	.	-6	-2	.	0
Cc1ccc(-c2nc3cc(NC(=O)C(C)C)ccc3o2)cc1	0.6	-3	34	-11	4	4
CC(=O)Nc1ccc2c(c1)nc(CN1CCCC1)n2C	-0.4	-2	0	-21	11	2
CCn1cc(CN2CCc3c([nH]c4ccccc34)C2c2cccc(OC)c2)c(C)n1 (stereo not drawn)	-0.2	-10	-18	-2	-12	-8
Fc1ccc(Cn2c(-c3cscn3)nc3ccccc32)c(Cl)c1	2.4	-12	-6	-12	-11	-13
Cc1cc(C(=O)CCl)c(C)n1CC1COc2ccccc2O1 (stereo not drawn)	0.7	3	-17	3	-15	-9
Cc1ccc(CNC(=O)c2ccc(N(C)C)cc2)cc1	-0.1	6	-8	-2	8	-8
CN1CCN(CC2(O)CCN(S(=O)(=O)c3ccc(Cl)cc3)CC2)CC1	0.3	7	-11	-4	-11	-4
CC(=O)CCSc1nnc(-c2cccc(S(=O)(=O)N3CCOCC3)c2)o1	-0.8	-3	8	-28	5	0
CC(=O)Nc1csc2ccccc12	1.1	0	7	-3	.	6

(next part)
SMILES	TRPML1 agonist	TRPV1 potentiator	TRPML1 blocker	D2 PAM	CtBP-E1A blk	Six1-Eya2 blk
CC(C)NC(=O)c1ccc(NC(=O)CC2SC(N3CCCC3)=NC2=O)cc1 (stereo not drawn)	3.5	2	2	0	4	3
COc1cc(/C=N/Nc2ncc(C(F)(F)F)cc2Cl)cc(OC)c1O	0.1	-18	27	9	1	-2
CCOC(=O)C1(C)C=C(Nc2ccc(OC)cc2)C(=O)N1c1ccc(OC)cc1 (stereo not drawn)	-0.3	6	-7	-22	1	0
O=C(OCC(=O)N1CCOCC1)c1ccc(F)cc1Cl	1.2	10	15	2	6	2
COc1ccc(CN(CCNC(=O)CCCCC(=O)NCCN(Cc2ccc(OC)cc2)C(C)C)C(C)C)cc1	-0.4	.	-6	-27	.	0
CCOC(=O)CSc1nnc(CNC(=O)c2cccs2)n1-c1ccccc1	-0.5	-11	3	-2	-1	7
COc1ccc(C(C(=O)NC(C)(C)C)N(C(=O)CNC(=O)c2cccs2)c2cccnc2)cc1OC (stereo not drawn)	-0.3	8	-8	4	2	4
Cc1cnc(C(=O)OCC(=O)Nc2ccc(Br)cc2F)cn1	2.4	14	-3	7	-3	3
Cc1ccccc1NC(=O)CNC(=O)N1CC(=O)Nc2ccccc21	0.1	.	6	-11	4	5
COc1ccccc1-c1c(C)c(C)nc(N)c1C#N	-1.3	-7	-5	-13	0	4
CSCCC(NS(=O)(=O)c1ccccc1F)C(=O)NCc1cccnc1 (stereo not drawn)	1.1	8	16	1	5	-4
COc1ccc(-c2cc(C(F)(F)F)n3nc(C(=O)NCCCN4CCOCC4)cc3n2)cc1	-0.5	-7	-7	-45	0	-11
CCN(CC)CCCNC(=O)c1cc(-c2ccc3c(c2)OCO3)on1	-0.6	18	-11	-12	-2	-5
CCOC(=O)N1CCN(C(=O)Cc2cccc3ccccc23)CC1	0.6	9	21	-1	.	7
O=C(O)[C@@H]1CCCC[C@@H]1C(=O)N1CCc2ccccc2C1CN1C(=O)c2ccccc2C1=O (stereo partly drawn)	-0.8	-11	-26	10	-1	4
Cc1ccc(/C=N/N2CCN(Cc3ccc(Cl)cc3)CC2)o1	-0.3	18	-5	-9	-20	-22
O=C(c1ccc(NC2=NC3CS(=O)(=O)CC3S2)cc1)N1CCN(c2ccc([N+](=O)[O-])cc2)CC1 (stereo not drawn)	-0.5	-10	27	-5	2	3
O=C(NN=C1CCN(Cc2ccccc2)CC1)c1cc2ccccc2cc1O	0.0	11	-22	10	-6	-3
C=CCn1c(SCC(=O)Nc2ccccc2-c2ccccc2)nc2cc(C(=O)O)ccc2c1=O	-0.6	-6	3	-10	8	-1
COc1ccc(Nc2nc3[nH]c(=O)cc(O)c3s2)cc1	-0.5	6	6	-1	0	-4
CC(C)=NOc1cc(NC(=O)CCl)cc([N+](=O)[O-])c1	-0.7	5	-1	-12	-18	1
COc1cc2c(cc1OC)[C@@H](NC(=O)CCc1ccccc1)[C@H](OCc1ccccc1)C2	0.2	.	-2	.	-5	-9
Cc1nc(SC(C(N)=O)c2ccccc2)c(C#N)c(C)c1C (stereo not drawn)	1.3	14	-11	7	9	-9
O=C(CC1Oc2ccccc2NC1=O)NCCc1ccccc1 (stereo not drawn)	-0.2	-1	8	-4	3	5
